Vaccinia Venus: qHTS for Stage-Specific Inhibitors of Vaccinia Orthopoxvirus: Venus Reporter Primary qHTS. Vaccinia virus Venus reporter expression, fluorescence. Potency, µM (top dose mostly 36.5 µM), for inactives: top-dose activity change, negative = inhibition, usual class: inhibitors. 330,000 compounds, 0.46% hits; active means well fitted inhibition curve with a large enough effect; inconclusive means small, poorly fitted or top-dose-only effect; inactive means no such curve, though single readings can be large or run the other way; tested in A549 cells; also: nearly all actives have a fitted effect of over 30% in size; inactives centre near -10
Vaccinia mCherry: qHTS for Stage-Specific Inhibitors of Vaccinia Orthopoxvirus: mCherry Reporter Primary qHTS. Vaccinia virus mCherry reporter infection, fluorescence; about a quarter of the inactives have no number. Potency, µM (series often up to 36.5 µM), for inactives: at the top dose activity change, negative = inhibition, actives largely listed as inhibitors. 310,000 compounds, 0.63% hits. AID 720579, 2013; active = well fitted inhibition curve with a large enough effect; inconclusive = small, poorly fitted or top-dose-only effect; inactive = no such curve, though single readings can be large or run the other way; tested in A549 cells; also: nearly all actives have a fitted effect of over 35% in size; inactives centre near -10
* hit, by the source's call; i = inactive; ? = inconclusive; · = no result given; & = joins results of further samples; [ ] = dose if it differs, or a comment. % is scaled to controls: 0 for no effect and ±100 for the full control effect; potency is read from the fitted curve at half-maximal effect.

SMILES | Vaccinia Venus | Vaccinia mCherry
Cc1cc(F)ccc1C(O)c1ncc(-c2ccc(Oc3ccccc3)cc2)[nH]1 (configuration not stated) | -13% | -19%
CCCCN(C(=S)Nc1cccc(SC)c1)C1CCN(C(C)=O)CC1 | -9% | -3%
CCn1c(O)c(/C=N/NC(=O)c2ccncc2)c(=O)[nH]c1=S | 17% | i
CCOc1ccc(-c2nc(CSc3nnc(N)s3)cs2)cc1 | -11% | ·
C=CCNC(=S)Nc1ccc(OC(F)F)c(Cl)c1 | -9% | -20%
Cc1ccc(NCc2ccccc2O)cc1C | -21% | -24%
C[C@@H]1CCCCO[C@H](CN(C)Cc2ccccc2)[C@@H](C)CN([C@H](C)CO)C(=O)c2cc(NC(=O)c3ccccc3)ccc2O1 | ? | -7%
Cn1c(SCc2ccon2)nc2ccccc2c1=O | -13% | -1%
Cn1c(=O)c(=O)n(C)c2cc(S(=O)(=O)N3CCOc4ccccc43)ccc21 | -18% | -10%
CCOC(=O)c1cccc(NC(=O)C(C)N2C(=O)c3ccccc3C2=O)c1 (configuration not stated) | -10% | ·
COc1cc2c(cc1OC)C(C)N(C(=O)c1cc(C)on1)CC2 (configuration not stated) | ? | ?
Cc1ccccc1NC(=O)C(Cl)=C(Cl)Cl | -19% | ?
CCCCC(=O)N(C)c1c(C)nc2ccc(C(=O)N3CCCCC3)cn12 | -23% | -11%
O=c1cnnc(Nc2ccc(Nc3ccccc3)cc2)[nH]1 | 4% | -4%
CCc1ccc(Nc2nn3c(=O)c4cc5c(cc4nc3s2)OCO5)cc1 | -8% | -7%
CCN(CC)CCn1nc(C)nc1-c1ccccc1O | -9% | -12%
COc1cc(NC(=O)CC(c2cccs2)N2Cc3ccccc3C2=O)cc(OC)c1OC (configuration not stated) | -5% | -20%
Cc1nc2c(C)cccc2cc1C(=O)N/N=C/c1ccc(O)cc1 | -27% | ?
O=C1c2cccc3cccc(c23)C(=O)N1CCN1CCN(C(=S)Nc2ccc(Cl)cc2)CC1 | -4% | -15%
CC(C)(O)C#Cc1ccc(CN2CCN(C3CCCCC3)C(CCO)C2)s1 (configuration not stated) | -16% | -4%
COc1ccc(Cl)cc1NC(=O)CN1CCN(S(=O)(=O)N2CCOCC2)CC1 | 5% | 7%
O=C(NCc1cccc(Br)c1)c1cccn1-c1nnc(N2CCCCC2)s1 | -13% | -19%
CC12CCC(C(=NO)C1=NO)C2(C)C (configuration not stated) | -2% | -10%
N=c1ccn(Cc2ccc([N+](=O)[O-])cc2)cc1 | -27% | -1%
COc1ccc(CNS(=O)(=O)CCNC(=O)c2ccc(OC)cc2)cc1 | -7% | i
Nc1c(C(=O)Nc2ccc(Br)cc2)sc2nc(-c3ccco3)ccc12 | -29% | ?
CC(=O)c1ccc(NC(=O)c2nn(C)c3c2CS(=O)(=O)c2ccccc2-3)cc1 | -20% | i
CCN1C[C@]2(CO)CC[C@H](OC)[C@@]34C5C[C@H]6[C@H](OC)C5[C@](O)(C[C@H]6OC)[C@@H](C(OC)C23)[C@@H]14 (some centres not stated) | 4% | 2%
COc1ccc(Nc2oc(/C=C/c3cccc(OC)c3)nc2C#N)cc1 | -5% | -5%
O=C(Cn1c(=O)oc2ccccc21)NCCc1ccccc1Cl | -14% | -1%

Brought forward from above: 7 entries, then new ones.
SMILES | Vaccinia Venus | Vaccinia mCherry
N=c1ccn(Cc2ccc([N+](=O)[O-])cc2)cc1 | -27% | -1%
COc1ccc(CNS(=O)(=O)CCNC(=O)c2ccc(OC)cc2)cc1 | -7% | i
Nc1c(C(=O)Nc2ccc(Br)cc2)sc2nc(-c3ccco3)ccc12 | -29% | ?
CC(=O)c1ccc(NC(=O)c2nn(C)c3c2CS(=O)(=O)c2ccccc2-3)cc1 | -20% | i
CCN1C[C@]2(CO)CC[C@H](OC)[C@@]34C5C[C@H]6[C@H](OC)C5[C@](O)(C[C@H]6OC)[C@@H](C(OC)C23)[C@@H]14 (some centres not stated) | 4% | 2%
COc1ccc(Nc2oc(/C=C/c3cccc(OC)c3)nc2C#N)cc1 | -5% | -5%
O=C(Cn1c(=O)oc2ccccc21)NCCc1ccccc1Cl | -14% | -1%
Cc1cc(C)cc(NC(=S)N2CCN(S(C)(=O)=O)CC2)c1 | -5% | -8%
COc1cccc(NC(=O)C2(C)CCN2Cc2ccc(SC)cc2)c1 (configuration not stated) | 1% | i
O=C(NN=C1CCN(Cc2ccccc2)CC1)c1cc2ccccc2cc1O | -3% | -12%
COc1ccc(NC(=O)CCCN2C(=O)COc3ccc(C)cc32)cc1OC | -15% | -14%
COc1ccc(C2(C)NC(=O)N(CC(=O)Nc3c(C)n(C)n(-c4ccccc4)c3=O)C2=O)cc1 (configuration not stated) | 2% | -12%
O=S(=O)(NCCN1CCOCC1)c1ccc(Oc2ccccc2Cl)cc1 | -10% | -17%
O=C(N/N=C/c1ccc2c(c1)OCO2)c1ccc(COc2cccc3cccnc23)cc1 | -24% | -7%
O=C(NCCc1ccccc1)c1ccc2c(c1)OCO2 | -13% | -10%
Cc1ccc(-c2csc3nc4ccc(C(=O)NCCO)cc4c(=O)n23)cc1 | -10% | -1%
Cc1ccc(S(=O)(=O)N2CCC(C(=O)N3CCC(C(=O)NCC4CCCO4)CC3)CC2)cc1 (configuration not stated) | -10% | i
OC[C@@H]1[C@@H](c2ccccc2)C(c2ccccc2)=NN1c1ccccc1 | -11% | ?
Cc1ccc(-c2nnc(COC(=O)c3cc(=O)[nH]c4ccccc34)o2)cc1 | -11% | 0%
CCc1cc(C(=O)N(C)CC(=O)Nc2c(Cl)cccc2Cl)sc1C | -11% | i
O=C(CN1CC=C(c2ccccc2)CC1)Nc1c(Cl)cccc1Cl | -4% | -7%
COC(=O)[C@H](CCSC)NC(=O)Cn1cnc2c(SC)nc(N)nc21 | -6% | i
CC1(C)C=Cc2c(c3c(c4c(=O)c(-c5ccc(O)cc5)coc24)OC(C)(C)CC3)O1 | -25% | -29%
CN(CC(=O)NNC(=O)CCNS(=O)(=O)c1ccccc1)S(=O)(=O)c1ccc(Cl)cc1 | -6% | i
O=C1NC[C@H](CCCCN2C[C@H](Cc3ccccc3)N(CCc3ccc(O)cc3)C(=O)C2=O)N(CCc2ccc(O)cc2)C1=O | 1% | 2%
O=C(C1CCCN(CCCc2ccccc2)C1)N1CCCCCC1 (configuration not stated) | 1% | i
CCOCCCNC(=O)C(NC(=O)c1ccc(NC(C)=O)cc1)c1ccc(C)cc1 (configuration not stated) | -4% | 4%

One compound at a time, as listed above.
`CCc1cc(C(=O)N(C)CC(=O)Nc2c(Cl)cccc2Cl)sc1C` is listed with Vaccinia Venus = -11%; Vaccinia mCherry = i
`O=C1NC[C@H](CCCCN2C[C@H](Cc3ccccc3)N(CCc3ccc(O)cc3)C(=O)C2=O)N(CCc2ccc(O)cc2)C1=O` is listed with Vaccinia Venus = 1%; Vaccinia mCherry = 2%
`OC[C@@H]1[C@@H](c2ccccc2)C(c2ccccc2)=NN1c1ccccc1` is listed with Vaccinia Venus = -11%; Vaccinia mCherry = ?

Continued:
SMILES | Vaccinia Venus | Vaccinia mCherry
NC(=O)c1ccc(NC(=O)COC(=O)C2CC3C=CC2C3)cc1 (configuration not stated) | -7% | i
COc1ccc(CNC(=O)C(C)Cc2ccccc2)cc1O (configuration not stated) | -9% | -1%
CCN(CC(=O)Nc1c(F)cccc1F)C(=O)c1ccc(S(=O)(=O)N2CCCCC2)cc1 | -13% | 0%
CCc1ccc(C(=O)c2cn(CC(=O)NCCc3ccc(OC)c(OC)c3)c3nc(C)ccc3c2=O)cc1 | -4% | 0%
O=C(NCCSc1c[nH]c2ccccc12)c1ccc(Br)o1 | -27% | -29%
COc1ccc(-c2c(C#N)c(SCC(=O)Nc3ccc(C)c(C)c3)nc(C)c2C(=O)Nc2ccc(Cl)cc2)cc1 | -7% | -6%
Cc1ccc(CCN2CC(C(=O)N3CCC4(CC3)OCCO4)CC2=O)cc1 (configuration not stated) | -9% | -5%[1.46 µM]
Cc1ccc(/C=C/C(=O)O)cc1S(=O)(=O)N(CCO)CCO | -14% | -21%
COC(=O)c1sc2ccccc2c1-n1cccc1C(=O)C(=O)Nc1ccccc1 | -10% | ·
Cc1cc(NC(=O)c2ccccc2C)no1 | ? | -10%
C[C@H](CO)N1C[C@H](C)[C@@H](CN(C)C(=O)c2ccccc2)OCc2cn(nn2)CCCC1=O | -12% | -7%
COc1ccc(S(=O)(=O)Nc2ccc(-c3ccc4nncn4n3)cc2)c(OC)c1 | ? | ?
COc1ccc2c(c1)OC1(O)COc3cc(OC)c(OC)cc3C1=C2 (configuration not stated) | -15% | -3%
CCCc1cc(=O)oc2c3c(cc(OCC(=O)N[C@@H](C)C(=O)O)c12)OC(C)(C)CC3 | -3% | -4%
O=c1c(O)c(-c2ccccc2)oc2ccccc12 | -11%&-3% | -12%&-7%
Clc1ccc2c(c1)-c1[nH]ncc1CS2 | -26% | i
Cc1ccc(-c2cc(Cc3ccccn3)c(=O)[nH]n2)cc1 | -7%[7.34 µM] | i[7.34 µM]
C=C1C(=O)O[C@@H]2C[C@@H](C)[C@@H]3C=CC(=O)[C@@]3(C)[C@@H](OC(=O)CC(=O)O[C@H]3[C@@H]4C(=C)C(=O)O[C@@H]4C[C@@H](C)[C@@H]4C=CC(=O)[C@]43C)[C@H]12 | 2.5µM* | ?
COc1ccc(C)cc1NS(=O)(=O)c1ccc2oc(=O)c3ncn(C)c3c2c1 | -1% | -9%
C=CCn1c(=S)[nH]c2nc3c(cc2c1=O)CCCC3 | -25% | -7%
O=C(c1cc2ccccc2oc1=O)N1CCN(c2ccccn2)CC1 | -8% | -17%
O=C(NCc1ccc2c(c1)OCO2)c1ccc(CS(=O)Cc2cccc(Cl)c2)o1 (configuration not stated) | -22% | -4%
CC(=O)N1CCCc2cc(S(=O)(=O)N3CCC(C(=O)N(C)C4CCCCC4)CC3)ccc21 | -3% | -11%
O=C(COC(=O)/C=C/c1cccc(C(F)(F)F)c1)NCc1ccccc1 | -4% | -14%
CC(=O)c1ccc(NC(=O)N[C@@H](CC(C)C)C(=O)O)cc1 | -5% | -13%[1.46 µM]
CCCS(=O)(=O)c1ccc(COC(=O)c2ccc(NC(C)=O)cc2)cc1 | -8% | -7%
O=C(COc1ccccc1-c1ccccc1)N/N=C/c1ccncc1 | -14% | -14%
O=C(/C=C/c1cccs1)N1CCN(c2ccc(F)cc2)CC1 | -13% | -17%
Cn1cccc1CNCc1ccc(F)cc1 | -5% | i
CC(C)n1c(=O)c2oc3ccccc3c2n(Cc2ccccc2F)c1=O | -10% | -17%
Cc1cccc(-n2c(Cc3cc(=O)[nH]c(=O)[nH]3)nnc2SCC(=O)NCc2ccco2)c1 | -10% | -11%
CCc1ccccc1NC(=O)Nc1nnc(N2CCCC2)s1 | -14% | -6%
Cn1c(=O)c2[nH]c(CCCCCCCc3nc4ccccc4[nH]3)nc2n(C)c1=O | -22% | ?
CCOC(=O)C1(Cc2cccc(OC)c2)CCCN(Cc2cc(C(C)C)n[nH]2)C1 (configuration not stated) | -21% | ?
CC(=O)c1ccc(C(=O)NCc2nc(-c3ccccc3NC(=O)c3cc(C)oc3C)oc2C)cc1 | -1% | -11%
COc1ccc(-c2cc(C(F)(F)F)n3nc(C)c(-c4ccccc4)c3n2)cc1OC | -17% | -21%
CCCCOc1c(Cl)cc(CNC(C)(C)CO)cc1OCC | -19% | -10%
CCCn1c(N)c(N(CCOC)C(=O)c2ccc(-c3ccc(Cl)cc3)o2)c(=O)[nH]c1=O | -20% | -28%
Cc1nn(-c2ccc(N3CCCCC3)nn2)c(C)c1CCC(=O)Nc1cc(F)ccc1F | -6% | -14%
CCCCn1nc2cc(C(=O)NC3CCCc4ccccc43)ccc2c1OCC (configuration not stated) | -25% | ?
CCc1cc2c(=O)c(-c3nc4ccccc4n3C)c(C)oc2c(CN2CCN(CCO)CC2)c1O | -10% | ?
Cc1ccc(F)cc1C(=O)N1CCC1(C)C(=O)O (configuration not stated) | 2% | 17%
CCOC(=O)c1cc2c(=O)n3ccccc3nc2n(Cc2ccco2)c1=NC(=O)c1ccc(Br)cc1 | -10%[7.34 µM] | -5%[7.34 µM]
O=C(NCc1ccc(F)cc1)C(c1ccccc1)N(C(=O)c1csnn1)C1CC1 (configuration not stated) | -7% | i
NCc1ccc(S(N)(=O)=O)cc1 | -9%&-17%&-9% | -20%&-13%&-15%
Cc1nc2ccccc2c(=O)n1NC(=O)c1cccc([N+](=O)[O-])c1 | -4% | -1%
CN(C)c1ccc(C2N(C)C(=O)c3ccccc3N2C)cc1 (configuration not stated) | -1% | ?
O=C(NCC1COc2ccccc2O1)C1(c2ccccc2)CCCC1 (configuration not stated) | -7% | i
COCCN(C(=O)c1cccc(-n2cnnn2)c1)c1c(N)n(CC(C)C)c(=O)[nH]c1=O | -11% | i
CC(C)(C)C1C/C(=C/c2ccccn2)C(=O)/C(=C/c2ccccn2)C1 (configuration not stated) | ? | ?
Cc1ccc(S(=O)(=O)NCC(=O)NCC(=O)N(C)Cc2ccc3ccccc3c2)cc1C | -26% | -18%
Cc1cc(C)cc(NC(=S)NCCc2c[nH]c3ccccc23)c1 | ? | ?

Compound activity (PubChem BioAssay)
